# Cruzain noTriton: cruzain (T. cruzi) inhibition without detergent; Potency, µM, without a hit: max response, negative = inhibition, usual class: inhibitors; P25779; hit rate 2.3% among 200,000; purified cruzain, Z-FR-AMC fluorescence, no detergent;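 also: plate controls were enzyme without inhibitor for no effect and buffer without enzyme for full effect; nearly all actives have a fitted effect of over 40% in size; top concentration of the series not given in the record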
# Target sequence (P25779 123-467 limits assumed): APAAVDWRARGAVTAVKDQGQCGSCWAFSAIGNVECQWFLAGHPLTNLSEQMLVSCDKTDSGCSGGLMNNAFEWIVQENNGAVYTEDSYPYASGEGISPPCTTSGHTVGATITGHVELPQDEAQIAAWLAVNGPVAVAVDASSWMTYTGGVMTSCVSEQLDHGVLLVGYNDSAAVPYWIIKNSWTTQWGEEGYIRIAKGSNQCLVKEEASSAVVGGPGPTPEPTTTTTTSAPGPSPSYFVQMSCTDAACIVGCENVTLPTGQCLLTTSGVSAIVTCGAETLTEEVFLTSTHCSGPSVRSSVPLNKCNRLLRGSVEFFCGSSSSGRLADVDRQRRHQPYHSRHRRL
#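 Detergent-free condition (0.00005% Triton X-100) in acetate buffer pH 5.5 with DTT. 1.5 nM enzyme and compound were pre-mixed 15 min, then 2 uM Z-FR-AMC substrate added; reaction progress from fluorescence change between first and third reads (60 s).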
# 2A StopGo: FMDV 2A StopGo reporter, luciferase signal | human cells with a luciferase reporter of 2A StopGo recoding; control for the full effect not named in the record | Potency, µM (doses to about 57.9 µM), for the others: top-dose signal change, negative = less light | hit rate 1.2% among 410,000 | AID 1159524; active = well fitted falling curve with a large enough effect; inconclusive = small, poorly fitted or top-dose-only effect; inactive = no such curve, though single readings can be large or run the other way; tested in HEK293T cells; also: nearly all actives have a fitted effect of over 45% in size; luciferase light after 4 h
# Cruzain inh Det: inhibitors of Trypanosoma cruzi cruzain with detergent. hit rate 0.43% among 200,000. AID 1478. purified cruzain, Z-FR-AMC fluorescence, 0.01% Triton. Potency, µM, without a hit: max response, negative = inhibition, actives largely listed as inhibitors;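 also: plate controls were neutral wells for no effect and buffer without enzyme for full effect; nearly all actives have a fitted effect of over 40% in size; top concentration of the series not given in the record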
#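 Cysteine protease activity tested under reducing, mildly acidic conditions (100 mM sodium acetate pH 5.5, 5 mM DTT) plus 0.01% Triton X-100. Cruzain 1.5 nM; substrate Z-FR-AMC 2 uM; 15 min compound preincubation at room temperature.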
# The depositor's hits bear a star; ? = inconclusive; & = joins results of further samples; [ ] = remark or other dose. Unless noted, calls follow the shape of the dose curve; as a rule, active = well fitted curve in the direction sought with a large enough effect; inconclusive = small, poorly fitted or top-dose-only effect, or another doubt; inactive = no such curve, though single readings can be large; an effect the other way counts as inactive or inconclusive. Unless noted, % is scaled to controls: 0 for no effect and ±100 for the full control effect; potency is read from the fitted curve at half-maximal effect. Some of the compounds tested; count on the stated rates, not on these rows.
# The line under a structure holds: Cruzain noTriton | 2A StopGo | Cruzain inh Det
Cn1cccc1C(=O)N1CCC2(CCCN(C(=O)Nc3ccccc3)C2)CC1
→ -3% | 5% | -3.3%
COc1cc2c3cc1Oc1cc(ccc1O)CC1c4c(cc(OC)c(O)c4Oc4ccc(cc4)CC3N(C)CC2)CC[N+]1(C)C (stereo not given)
→ 5% | -7% | 4.9%
O=C1C=CC2=C3c4cc(O)c(O)cc4C[C@@]3(O)COC2=C1
→ -10% | ? | -0.7%
COC(=O)CC1C(C)(C)C(OC(C)=O)C2CC3=C4CC(=O)OC(c5ccoc5)[C@]4(C)CCC3[C@@]1(C)C2=O (stereo not given in full)
→ ? | -6% | -7.9%
CCC(C)C(=O)OC1CC(C)C=C2C=CC(C)C(CCC3CC(O)CC(=O)O3)C21 (stereo not given)
→ 9% | -8% | -0.8%
CN(C)c1ccc(-c2cncnc2NCc2ccccc2)cc1
→ -2% | -19% | -1.4%
c1cncc(C2=NCCC2)c1
→ -8% | -4% | -0.4%
CN(C(=O)Cc1ccc(Cl)c(Cl)c1)[C@H](CN1CCCC1)c1cccc(N=C=S)c1
→ 6% | -23% | -7.9%
O=C1Nc2cc(Cl)c(Cl)cc2N2CCNC[C@H]12
→ 2% | -5% | -19%
Cc1noc(C)c1-c1nccc(NC2CC2)n1
→ -1% | 2% | 1.2%
C=C1C([C@@]2(C)C(OC(C)=O)CC(=O)O[C@@](C)(COC(C)=O)C2CC(=O)OC)C(OC=O)C(OC(=O)C(O)C(C)CC)[C@]2(C)C(c3ccoc3)CC(=O)C12O (stereo not given in full)
→ ? | -19% | 2.7%
COc1ccc(-n2c(=O)c(-c3cccs3)nc3cnc(N4CCNCC4)nc32)cc1
→ -9% | 1% | -3.0%
N#Cc1cccc(-c2nccc(NCc3ccccc3)n2)c1
→ 0% | 14% | -5.1%
COc1ccc2[nH]cc(CCNc3nc(-c4cccnc4)nc4ccccc34)c2c1
→ -1% | -7% | 0.4%
O=S(=O)(c1ccccc1)N1CCC2(CC1)CN(c1ccccn1)C2
→ 0% | -16% | -4.8%
O=C(Oc1ccccc1)N1CCC2(CC1)CN(c1ccccn1)C2
→ -22% | -27% | 0.9%
Cn1cccc1C(=O)N1CCC2(CCCN(Cc3nccs3)C2)CC1
→ 3% | -3% | 0.7%
O=S(=O)(c1ccccc1)N1CCC2(CCN(c3ccncc3)CC2)CC1
→ -7% | -19% | 2.4%
CCNc1ncc2nc(C)c(=O)n(CCC#N)c2n1
→ ? | -18% | -26%
N[C@@H](Cn1ccc(=O)n(Cc2ccc(C(=O)O)cc2)c1=O)C(=O)O
→ 2% | -14% | 1.3%
c1ccc(CN2CCCC3(CCNCC3)C2)cc1
→ 9% | -1% | 3.5%
Cc1noc(C)c1-c1cc(NC2CCNCC2)ncn1
→ 8% | -18% | 3.9%
COc1ccccc1CNc1ncnc2ccc(-c3cccnc3)cc12
→ -10% | -3% | -9.3%
O=C(c1cc(C(F)(F)F)cc(C(F)(F)F)c1)N1CCC2(CC1)CN(Cc1ccccc1)C2
→ -3% | -17% | 4.3%
O=C1NC(=O)C(=O)C(=O)N1
→ -8% | -2% | -1.0%
c1cncc(-c2ccc3ncnc(N4CCNCC4)c3c2)c1
→ 9% | 3% | -3.1%
CCNc1ncc2nc(C)c(=O)n(CCOC)c2n1
→ -23% | -9% | -14%
CCCCCC1C(=O)CCC1CC(=O)O (stereo not given)
→ -2% | 7% | 0.9%
COc1ccc(-n2c(=O)c(-c3cccs3)nc3cnc(N4CCOCC4)nc32)cc1
→ -12% | -18% | -3.2%
COc1ccc([C@H]2c3cc(OC)c(OC)cc3C[C@@H](C)[C@@H]2C)cc1OC
→ ? | -14% | -10%

# Whole records, quoted from the list. Order of values: Cruzain noTriton, 2A StopGo, Cruzain inh Det
# COc1cc2c3cc1Oc1cc(ccc1O)CC1c4c(cc(OC)c(O)c4Oc4ccc(cc4)CC3N(C)CC2)CC[N+]1(C)C (stereo not given) is listed with 5%, -7%, 4.9%
# COc1ccc(-n2c(=O)c(-c3cccs3)nc3cnc(N4CCNCC4)nc32)cc1 is listed with -9%, 1%, -3.0%
# CN(C(=O)Cc1ccc(Cl)c(Cl)c1)[C@H](CN1CCCC1)c1cccc(N=C=S)c1 is listed with 6%, -23%, -7.9%
# Cc1noc(C)c1-c1cc(NC2CCNCC2)ncn1 is listed with 8%, -18%, 3.9%

# Other compounds follow.
# The line under a structure holds: Cruzain noTriton | 2A StopGo | Cruzain inh Det
COc1ccccc1-c1ccc2ncnc(NC3CC3)c2c1
→ -7% | -22% | -3.7%
OCCNCCCOc1cccc(Cl)c1Cl
→ -11% | -10% | -10%
O=C(c1csnn1)N1CCC[C@@]2(CCN(C(c3ccccc3)c3ccccc3)C2)C1
→ -8% | 34%[activator] | -1.1%
CC1(C)OC2C(CO)OC(n3cnc4c(=O)[nH]cnc43)C2O1 (stereo not given)
→ 2% | -4% | 3.8%
c1ccc2c(NC3CC3)nc(-c3ccoc3)nc2c1
→ -15% | -17% | 1.3%
N#Cc1ccc(CN2CCCC3(CCN(C(=O)Oc4ccccc4)CC3)C2)cc1
→ 8% | -20% | 9.0%
COc1ccc(C(=O)N2CCC3(CC2)CN(C(=O)Nc2cccc(C#N)c2)C3)cc1
→ -4% | -21% | 1.0%
COc1ccc(NC(=O)N2CC3(CCN(C(=O)c4c(C)noc4C)CC3)C2)cc1
→ -3% | 1% | -2.0%
COc1ccc(Oc2ncc3nc(C)c(=O)n(C4CC4)c3n2)cc1
→ -13% | -7% | 0.2%
Cn1cccc1C(=O)N1CCC2(CCN(C(=O)Nc3cccc(C#N)c3)CC2)CC1
→ -4% | -14% | -0.8%
Cc1ccccc1-c1cncnc1NCCN1CCOCC1
→ 2% | -6% | 5.1%
O=c1c(-c2ccc(Cl)cc2)nc2cnc(N3CCOCC3)nc2n1CCc1ccccc1
→ 4% | -15% | -1.0%
Cc1ccccc1-c1ccc2ncnc(-n3ccnc3)c2c1
→ -7% | 40µM* | -2.3%
COc1ccc(C(=O)N2CCC[C@@]3(CCN(Cc4nccs4)C3)C2)cc1
→ 2% | -16% | -0.6%
COCC(=O)N1CCC2(CCN(Cc3ccncc3)CC2)CC1
→ -1% | -7% | 0.8%
CN1CCN(c2ncc3nc(-c4cccs4)c(=O)n(CCC#N)c3n2)CC1
→ -5% | -5% | -1.9%
COc1cccc(-c2ccc3ncnc(NC4CC4)c3c2)c1
→ -7% | 0% | -7.0%
OC[C@H]1O[C@H](n2cnc3c(NC4CCCC4)nc(Cl)nc32)[C@@H](O)[C@@H]1O
→ 11% | -13% | -2.9%
Cn1cc(-c2nc3cncnc3n(CCN)c2=O)c2ccccc21
→ -14% | -25% | 0.5%
N[C@@H](C(=O)O)c1ccc(C(=O)O)cc1
→ 2%&-1% | -12%&-14% | 0.2%&7.0%
O=c1c(-c2ccc(F)cc2)nc2cnc(N3CCNCC3)nc2n1Cc1ccc(F)cc1
→ 23% | -13% | -2.5%
CNc1ncncc1-c1ccccc1OC
→ 1% | -3% | 2.9%
COc1ccc([C@@H](C)C(=O)c2ccc(O)cc2O)cc1
→ -3% | -6% | -13%
CN1CCN(c2ncc3nc(-c4cc(F)cc(F)c4)c(=O)n(-c4ccccc4)c3n2)CC1
→ 8% | -16% | 3.9%
CC(C)CN1CC[C@@]2(CCCN(C(=O)c3ccncc3)C2)C1
→ 12% | -3% | -2.0%
O=c1cc(-c2ccccc2O)oc2cc(O)ccc12
→ 16% | 28% | -2.7%
Cc1noc(C)c1-c1nc(NCc2ccccc2)c2ccccc2n1
→ -5% | ? | -3.5%
CCCCCCCC/C=C\CCCCCCCCOC[C@H](COP(=O)([O-])OCC[N+](C)(C)C)OC(C)=O
→ ? | 8%[6.7 µM] | -2.4%
COC(=O)N1CCC2(CCN(C(=O)NC(C)C)CC2)CC1
→ 7% | -6% | 5.1%
CN1CCN(c2ncc3nc(-c4ccccc4)c(=O)n(C)c3n2)CC1
→ ? | 10% | ?

# Brought forward from above: 5 entries, followed by the next part.
Molecule,Cruzain noTriton,2A StopGo,Cruzain inh Det
O=c1cc(-c2ccccc2O)oc2cc(O)ccc12,16%,28%,-2.7%
Cc1noc(C)c1-c1nc(NCc2ccccc2)c2ccccc2n1,-5%,?,-3.5%
CCCCCCCC/C=C\CCCCCCCCOC[C@H](COP(=O)([O-])OCC[N+](C)(C)C)OC(C)=O,?,8%[6.7 µM],-2.4%
COC(=O)N1CCC2(CCN(C(=O)NC(C)C)CC2)CC1,7%,-6%,5.1%
CN1CCN(c2ncc3nc(-c4ccccc4)c(=O)n(C)c3n2)CC1,?,10%,?
O=c1c(-c2ccc(Cl)cc2)nc2cnc(N3CCNCC3)nc2n1CCc1ccccc1,25%,-12%,0.1%
CC(=O)NCCNc1nc(-c2ccccc2Cl)nc2ccccc12,-5%,-5%,1.8%
CCCCn1c(=O)c2[nH]c(C34CC5CC(CC3C5)C4)nc2n(CCCO)c1=O,6%,-9%,-0.7%
CS(=O)(=O)N1CCC2(CCN(c3ccccc3)CC2)CC1,0%,-12%,-3.5%
CN1CCC2(CC1)CCN(C(=O)Oc1ccccc1)CC2,6%,2%,-1.4%
COc1ccc(-c2coc3cc(OC(C)=O)cc(OC(C)=O)c3c2=O)cc1,-4%,59%[activator],0.3%
CCC(C)C(=O)OC1C(O)C2C(CN3CC(C)CCC3[C@]2(C)O)C2C[C@]34O[C@@]5(O)C(OC(=O)C(C)(O)CC)CCC3(C)C5C(OC(C)=O)C(OC(C)=O)C4[C@@]21O (stereo not given in full),-2%,-2%,-0.1%
CN1CCN(c2ncc3ncc(=O)n(Cc4cccs4)c3n2)CC1,-4%,-5%,-2.4%
CN(C)C(=O)n1nnnc1Cc1ccc(-c2ccccc2)cc1,-2%,-17%,-1.7%
COc1ccc(NC(=O)N2CCCC3(CCN(C(=O)c4ccncc4)CC3)C2)cc1,-4%,-17%,2.0%
CCN(CC)c1ccc(/C=N/NC(=O)c2ccc(O)cc2)cc1,-3%,?,-9.9%
CC(C)NC(=O)N1CCC2(CC1)CCN(C(=O)c1cnccn1)CC2,23%,0%,-0.2%
O=c1c(O)c(Br)ccc2c(Br)c(O)c(O)c(O)c12,-27%,-10%,-16%
CSC(N)=NCCCC(N)C(=O)O (stereo not given),0%,8%,1.3%
COc1ccc(NC(=O)N2CCC3(CC2)CCN(C(=O)c2cccc(F)c2)CC3)cc1,5%,-2%,-0.8%
COc1ccc(-c2nc(C(=O)N3CCN(C)CC3)sc2-c2ccc(OC)cc2)cc1,2%,-2%,-3.7%
COc1ccccc1CN1CC[C@@]2(CCCN(C(=O)c3cccc(F)c3)C2)C1,2%,-7%,3.1%
COc1ccc2[nH]cc(CCNc3cc(-c4cccnc4)ncn3)c2c1,?,-21%,-1.0%
CN(C)Cc1ccccc1-c1nccc(N(C)Cc2ccco2)n1,-1%,-10%,2.5%
O=C(c1csnn1)N1CCC2(CCCN(c3ccccn3)C2)CC1,-10%,-2%,-1.0%
CC1COC2=C1C(=O)C(=O)c1c2ccc2c1CCCC2(C)C (stereo not given),?,-9%,-25%&-22%
CS(=O)(=O)N1CCC2(CCN(Cc3nccs3)CC2)CC1,-4%,-10%,4.7%
O=c1c(-c2ccccc2)nc2cnc(N3CCOCC3)nc2n1C[C@H]1CCCO1,5%,23%,-0.5%

# Copied from the list:
# 2A StopGo result of CS(=O)(=O)N1CCC2(CCN(c3ccccc3)CC2)CC1 : -12%
# 2A StopGo result of CC1COC2=C1C(=O)C(=O)c1c2ccc2c1CCCC2(C)C (stereo not given) : -9%
# Cruzain noTriton result of CCC(C)C(=O)OC1C(O)C2C(CN3CC(C)CCC3[C@]2(C)O)C2C[C@]34O[C@@]5(O)C(OC(=O)C(C)(O)CC)CCC3(C)C5C(OC(C)=O)C(OC(C)=O)C4[C@@]21O (stereo not given in full) : -2%
# Cruzain inh Det result of CSC(N)=NCCCC(N)C(=O)O (stereo not given) : 1.3%
# Cruzain noTriton result of CN1CCC2(CC1)CCN(C(=O)Oc1ccccc1)CC2 : 6%
# Cruzain inh Det result of CN(C)Cc1ccccc1-c1nccc(N(C)Cc2ccco2)n1 : 2.5%

# Copied from the entries so far, 4 compounds:
Molecule,Cruzain noTriton,2A StopGo,Cruzain inh Det
CCCCCCCC/C=C\CCCCCCCCOC[C@H](COP(=O)([O-])OCC[N+](C)(C)C)OC(C)=O,?,8%[6.7 µM],-2.4%
COC(=O)N1CCC2(CCN(C(=O)NC(C)C)CC2)CC1,7%,-6%,5.1%
CN1CCN(c2ncc3nc(-c4ccccc4)c(=O)n(C)c3n2)CC1,?,10%,?
O=c1c(-c2ccc(Cl)cc2)nc2cnc(N3CCNCC3)nc2n1CCc1ccccc1,25%,-12%,0.1%
